Beta cell apopt: blocks beta cell apoptosis | actives 0.8% (n = 300,000) | protection from apoptosis, % (concentration not given with the values) | AID 435005 | INS-1E cytokine-induced death, ATP luminescence, 48 h; percent of positive-control rescue, neutral wells zero;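 active = all replicates at 75% or more, or half of them and the mean; inconclusive = half reach 75% but not the mean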;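 also: 0% = cytokine-treated negative control wells and 100% = positive control rescue; higher means more ATP so stronger rescue from cytokine killing; wells of about 40 µL received 100 nL stock; the first replicate is given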
Bfl-1 A1 inh: inhibitors of the anti-apoptotic protein A1, read as caspase activation | MEF A1-2A-BIM cells, Caspase-Glo 3/7 luminescence, 3 h; percent of clofoctol response, vehicle zero | caspase activation, % (concentration not given with the values) | actives 0.066% (n = 330,000) | AID 2462;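 active = over half of replicate activation scores above 10%, or exactly half above 10 with the replicate mean above 10; inconclusive = replicate mean below 10 yet half the replicates above 10; inactive = over half of replicates below 10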;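 also: wells of about 30 µL received 50 nL stock; many hits fall short of the cut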
LANA-H2A inh: blocks KSHV LANA binding to histone H2A/H2B; inhibition, % (no concentration beside the values); Q9QR71; cell-free LANA-H2A/H2B peptide, fluorescence polarization; actives 0.6% (n = 320,000); AID 2629; in the data active = inhibition mostly above about 10%, no sharp cut-off; inactive = mostly below about 6.7%;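 also: stock transfer was 7.5 nL into about 10 µL; 0% = median of vehicle wells and 100% = median of positive control wells; one replicate is shown; the record names a cut of 25% in any replicate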
Calb FLC: C. albicans growth modulation with fluconazole | growth inhibition, % (test concentration not listed) | AID 1979 | C. albicans CaCi-2 (fluconazole-resistant clinical isolate) + fluconazole, Alamar Blue growth, 48 h | actives 0.57% (n = 300,000);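 active = most replicates above 75%; inconclusive = exactly half above 75%; inactive = most below 75%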;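 also: all wells also contain fluconazole at 8 µg/ml as a sub-toxic cotreatment; 0% = median of DMSO wells and 100% = median of geldanamycin control wells; wells of about 8 µL received 7.5 nL stock; the first replicate is given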
T cruzi inh: T. cruzi replication inhibition; actives 1.4% (n = 300,000); T. cruzi beta-gal in NIH3T3, luminescence, 90 h; inhibition, % (concentration not given with the values);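 active = mean inhibition across valid replicates above about 55%, limit read from the data; inconclusive = mean below that limit but half or more replicates reach it; inactive = mean below it, under half of replicates reach it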;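 also: signal also drops with host cell toxicity which is not excluded here; 0% = plate median of DMSO wells and 100% = zero luminescence signal; higher percent means less beta-gal luminescence so fewer parasites; stock transfer was 50 nL into about 50 µL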
UCH37 DUB inh: human UCH37 deubiquitinating enzyme inhibition; Q9Y5K5; purified proteasome/UCH37, Ub-AMC cleavage fluorescence; inhibition, % (concentration not given with the values); actives 0.33% (n = 330,000); AID 588478;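 active = mean of two replicates above 20%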;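 also: 0% = compound-free wells with enzyme and 100% = wells lacking proteasome; stock transfer was 100 nL into about 20 µL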
Target sequence (Q9Y5K5 whole entry, looked up): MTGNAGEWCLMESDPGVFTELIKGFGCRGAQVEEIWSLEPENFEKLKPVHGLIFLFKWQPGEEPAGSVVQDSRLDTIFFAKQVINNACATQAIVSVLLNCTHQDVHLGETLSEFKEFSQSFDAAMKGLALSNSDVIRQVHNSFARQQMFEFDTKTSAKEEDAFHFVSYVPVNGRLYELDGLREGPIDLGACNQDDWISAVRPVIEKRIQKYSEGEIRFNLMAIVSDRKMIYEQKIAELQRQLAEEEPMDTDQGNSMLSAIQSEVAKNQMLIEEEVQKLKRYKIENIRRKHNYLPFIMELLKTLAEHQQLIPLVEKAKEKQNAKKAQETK
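system = Proteasome-associated human UCH37 deubiquitinase | amount = 0.15 nM proteasome as dispensed | medium = pH 7.4 Tris-HCl (50 mM) with ovalbumin, ATP-MgCl2, DTT | incubation = 30 min preincubation with enzyme, 25 min cleavage at room temperature | detection = AMC fluorescence 355/460 nm | read-out basis = percent inhibition | controls = no-proteasome and no-compound wells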
RanGTP-Imp inh: disruptors of Ran-importin-beta complex formation – biochemical, FRET, CFP-Ran, YFP-importin-beta, homogeneous, primary screen | actives 1.1% (n = 300,000) | inhibition, % (concentration not given with the values) | AID 2216 | cell-free CFP-Ran/YFP-importin-beta FRET ratio;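 active = most replicates above 15%; inconclusive = exactly half above 15%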;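 also: 0% = DMSO wells and 100% = Ran loaded with GDP instead of GTP; wells of about 40 µL received 100 nL stock; the first replicate is given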
B2AR ag: agonists of human beta-2 adrenergic receptor inducing internalization; P07550; Am2.2-beta2AR cells, FAP receptor internalization, flow cytometry; reference of the scale not given here; response, % (no concentration beside the values); actives 0.43% (n = 340,000); AID 504454;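 active = response above a set limit, near 3 SD of response in nonfluorescent compounds, cut at about 42% in these data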;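 also: stock transfer was 100 nL into about 11 µL; a reference agonist was the positive control; negative values mostly stem from fluorescent compounds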
Target sequence (P07550 whole entry, looked up): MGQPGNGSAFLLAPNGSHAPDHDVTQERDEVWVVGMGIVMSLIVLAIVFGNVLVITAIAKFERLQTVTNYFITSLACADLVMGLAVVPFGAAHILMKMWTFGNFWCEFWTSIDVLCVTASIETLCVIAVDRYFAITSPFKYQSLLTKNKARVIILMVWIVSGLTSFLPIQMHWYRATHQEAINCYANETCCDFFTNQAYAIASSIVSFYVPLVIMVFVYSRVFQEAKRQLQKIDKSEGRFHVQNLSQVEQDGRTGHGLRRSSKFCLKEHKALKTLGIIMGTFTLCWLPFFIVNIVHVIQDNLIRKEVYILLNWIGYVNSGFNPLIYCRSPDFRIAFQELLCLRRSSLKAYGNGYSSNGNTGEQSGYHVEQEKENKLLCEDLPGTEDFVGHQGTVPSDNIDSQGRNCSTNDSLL
Starred values were filed as active, the others as inactive; ? = inconclusive; . = no result given.

SMILES	Beta cell apopt	Bfl-1 A1 inh	LANA-H2A inh	Calb FLC	T cruzi inh	UCH37 DUB inh	RanGTP-Imp inh	B2AR ag
O=C(CSc1nc(-c2ccccc2)cs1)N1CCN(C(=O)c2ccco2)CC1	4	-0.9	6.2	-4	0	1.6	3.1	-7
CC1(C)Cc2c(cnn2-c2ccccc2)C(=O)/C1=N\NC(=O)c1ccccc1O	-1	0.8	-2.5	32	-1	3.6	3.2	4
Cc1cc(C)c(NC(=O)CSc2nc(COc3ccccc3)nc3ccccc23)c(C)c1	-4	0.8	-0.8	29	-7	5.0	3.1	-15
CN(C)c1ccc(C(C(=O)NCC2CCCO2)N(C(=O)c2snc(C(N)=O)c2N)c2ccc3c(c2)OCO3)cc1 (stereo unspecified)	7	1.5	-1.0	47	10	.	-0.2	1
Nc1cc(Cl)ccc1Oc1ccc2ccccc2c1	9	-1.2	-2.4	-8	36	2.0	0.4	3
CC(C)(C)n1nnnc1SCC(=O)Nc1nn(-c2ccccc2)nc1C(N)=O	-8	-0.5	-3.4	2	.	8.5	.	-7
Cn1nc(CC(=O)NC2CCCCCCCCCCC2)c2ccccc2c1=O	17	1.5	-3.7	18	-5	4.5	0.1	4
CCOc1ccc(C2c3c(oc4cc(C)c(C)cc4c3=O)C(=O)N2CCCN2CCOCC2)cc1 (stereo unspecified)	-6	0.5	-6.2	-17	-4	6.3	-4.8	-18
O=C(Nc1ccc(-c2csc(Nc3ccccc3)n2)cc1)c1cccc(C(F)(F)F)c1	-1	-1.1	0.9	12	35	3.1	2.9	12
COc1ccc(/C(C)=N/NC(=O)CNC(=O)/C=C\c2ccccc2)c(OC)c1	-6	-0.4	5.1	29	-15	.	3.4	9
COc1cc(/C=C/C(=O)N2CCN(Cc3ccccc3)CC2)cc(OC)c1OC	-5	0.5	2.3	5	44	-15	2.7	2
CCC(NC(=O)c1[nH]c(C)c(C(C)=O)c1C)c1ccc(Br)cc1 (stereo unspecified)	-5	2.6	1.3	-4	14	-2.8	7.3	-3
CCOc1cc2[nH]c(=O)n(CCCCCC(=O)NC3CCCC3)c(=O)c2cc1OCC	.	2.9	-4.6	8	-15	-31	2.0	-8
Nc1cc(N2CCCC2)c(Cl)cc1[N+](=O)[O-]	-3	-0.7	.	-2	-2	-1.6	3.7	-10
CC(=O)c1cccc(N(CC(=O)Nc2ccccc2F)S(C)(=O)=O)c1	0	-1.1	2.9	8	-15	1.7	2.5	-3
N/C(COc1cc(Cl)cc(Cl)c1)=N\O	-1	0.5	-1.2	-2	-2	.	-0.6	0
CCC(=O)OCCNc1cc(Sc2nc3ccccc3[nH]2)c2nonc2c1[N+](=O)[O-]	-3	2.1	-4.3	.	.	6.7	.	78*
CCOc1ccc(Br)cc1S(=O)(=O)NC1CC(C)(C)NC(C)(C)C1	.	-0.1	-5.8	1	-14	0.5	5.0	0
COC(=O)c1ccc(Cl)c(NC(=O)CN(c2ccc3c(c2)OCO3)S(C)(=O)=O)c1	-3	0.5	-1.2	-15	-4	5.9	3.8	12
O=C(NC(NC(=S)Nc1ccccc1C(=O)O)C(Cl)(Cl)Cl)c1ccco1 (stereo unspecified)	-2	-0.3	.	1	-15	-51	1.9	-6
COCCN(C(=O)CSc1nnc(-c2ccc(C)c(C)c2)o1)c1c(N)n(CC(C)C)c(=O)[nH]c1=O	-6	0.9	3.5	4	-1	1.6	0.1	5
COc1c2ccoc2nc2c(OC)c(OCC(OC(C)=O)C(C)(C)O)ccc12 (stereo unspecified)	-1	0.4	7.3	2	3	-258	1.6	0
Cn1cnnc1SCC(=O)N1CCN(C(=O)c2ccco2)CC1	-9	0.0	-2.1	33	-8	2.5	-0.7	4
COc1ccc(-c2nnc(Nc3nc4c(OC)cccc4s3)o2)cc1	3	-0.3	2.3	-6	-6	-130	-3.4	30
Cc1ccc(CN2C(=O)C3CCCN3c3ccc(S(=O)(=O)N4CCOCC4)cc32)cc1 (stereo unspecified)	-1	0.6	-0.2	-2	8	.	2.7	.
Cc1ccc(O)c(-c2cc(C(F)(F)F)[nH]n2)c1	0	-0.1	5.8	-12	16	1.1	2.3	18
CO/N=C(\C)C(Cc1ccc(Cl)nc1)Cc1ccc(Cl)nc1	-4	1.4	-0.2	19	-4	.	0.5	-9
Cc1ccc(SCc2cc(=O)n3ccsc3n2)c(C)c1	-13	0.0	-1.2	-7	-2	.	0.8	.
CN1CCC(OC(=O)c2ccc(Cl)cc2Cl)CC1	-18	0.6	-1.2	-18	58*	4.4	0.6	-7
COc1ccc(/C=C/C(=O)OCC(=O)NC2CCCCCC2)cc1OC	2	-0.5	4.8	.	.	-17	.	2
Cc1c(C(=O)Nc2c(F)cccc2F)sc2ncnc(N3CCN(c4ccccc4)CC3)c12	7	0.6	-5.4	2	26	2.0	-0.3	-27
Cc1ccc(S(=O)(=O)CCC(=O)OCC(=O)NCc2ccc(Cl)cc2)cc1	-15	-1.0	-0.1	3	-18	-0.1	-3.8	0
COc1ccc(C2(c3ccc(OC)cc3)NC(=O)N(CC(=O)Nc3ccccc3C(F)(F)F)C2=O)cc1	2	0.3	1.4	-10	11	1.6	-2.0	0
COCCCNC(=O)N1c2ccccc2Sc2ccccc21	.	0.0	5.3	-2	7	0.6	-1.6	-2
O=C(COC(=O)c1cc(Cl)nc(Cl)c1)NCCc1ccc(F)cc1	-3	0.9	0.2	.	.	0.2	.	-4
CSc1ccc(CCNC(=O)CCc2nnc3ccc(NCCCN4CCCC4=O)nn23)cc1	2	3.2	-2.6	0	-13	1.6	0.7	9
O=C(c1ccc(NC2=NC3CS(=O)(=O)CC3S2)cc1)N1CCN(Cc2ccccc2)CC1 (stereo unspecified)	-1	0.0	0.2	-11	-1	1.0	-2.1	10
O=C(O)c1ccccc1C(=O)NC1Cc2ccccc2C1	-1	0.2	0.8	-3	-5	0.8	0.6	-5
C=CCN1C(=O)/C(=C2/Sc3ccc(OC)cc3N2C)SC1=Nc1ccccc1	-2	0.6	0.2	-4	-2	-24	-11	3
O=[N+]([O-])c1ccc2c(c1)nc1n2CCN(CC2CCCO2)C1 (stereo unspecified)	0	-0.2	0.8	29	-2	7.7	2.3	-7

Looked up one by one from above (2):
SMILES	Beta cell apopt	Bfl-1 A1 inh	LANA-H2A inh	Calb FLC	T cruzi inh	UCH37 DUB inh	RanGTP-Imp inh	B2AR ag
C=CCN1C(=O)/C(=C2/Sc3ccc(OC)cc3N2C)SC1=Nc1ccccc1	-2	0.6	0.2	-4	-2	-24	-11	3
O=C(O)c1ccccc1C(=O)NC1Cc2ccccc2C1	-1	0.2	0.8	-3	-5	0.8	0.6	-5

(cont.)
SMILES	Beta cell apopt	Bfl-1 A1 inh	LANA-H2A inh	Calb FLC	T cruzi inh	UCH37 DUB inh	RanGTP-Imp inh	B2AR ag
N#CCCN(C(=O)COC(=O)CCc1ccccc1)c1ccccc1	0	-0.1	-0.9	0	-2	.	-3.4	0
COc1ccc(C(=O)Nc2ccc(CN3CCCCC3)cc2)cc1	.	-1.0	3.9	-10	7	0.9	1.4	-2
Cc1ccc(CO/N=C/c2c(O)cc(C)oc2=O)cc1	-1	0.4	-2.8	-4	1	.	1.3	1
Cc1cc(S(=O)(=O)Nc2ccc(C(=O)NCC(c3ccco3)N(C)C)cc2)ccc1F (stereo unspecified)	-4	-0.5	0.3	2	-3	2.5	-0.4	-1
O=C(CCn1c(=O)oc2ccccc21)N(Cc1ccccc1)c1ccccc1	-5	-0.6	-5.6	-10	8	1.6	-2.4	1
CC(=O)c1ccccc1Oc1cc(NN2CCCCC2)c([N+](=O)[O-])cc1[N+](=O)[O-]	14	-0.5	-3.4	13	11	2.3	-0.5	11
O=C(O)c1ccc(COc2c(F)c(F)cc(F)c2F)o1	-1	1.3	1.8	19	12	4.6	2.9	-2
O=C(Nc1ccccn1)c1cc(-c2cccnc2)nc2ccc(Br)cc12	3	3.2	0.6	2	-2	.	-1.6	-11
CS(=O)(=O)N(CC(=O)Nc1ccc2c(c1)OCO2)c1ccccc1	-1	0.9	-0.8	-4	-7	1.8	-5.5	6
NC1=NC(c2ccccc2)=NC1(NC(=O)c1ccccc1)C(Cl)Cl (stereo unspecified)	-1	0.5	5.8	-1	3	6.7	-3.2	1

Sorted by formula weight (rising): four of the compounds above
SMILES	Beta cell apopt	Bfl-1 A1 inh	LANA-H2A inh	Calb FLC	T cruzi inh	UCH37 DUB inh	RanGTP-Imp inh	B2AR ag
O=C(O)c1ccc(COc2c(F)c(F)cc(F)c2F)o1	-1	1.3	1.8	19	12	4.6	2.9	-2
COc1ccc(C(=O)Nc2ccc(CN3CCCCC3)cc2)cc1	.	-1.0	3.9	-10	7	0.9	1.4	-2
N#CCCN(C(=O)COC(=O)CCc1ccccc1)c1ccccc1	0	-0.1	-0.9	0	-2	.	-3.4	0
O=C(CCn1c(=O)oc2ccccc21)N(Cc1ccccc1)c1ccccc1	-5	-0.6	-5.6	-10	8	1.6	-2.4	1

Next structures follow:
SMILES	Beta cell apopt	Bfl-1 A1 inh	LANA-H2A inh	Calb FLC	T cruzi inh	UCH37 DUB inh	RanGTP-Imp inh	B2AR ag
COc1ccc(Cc2nc3ccc(C(=O)NCc4ncc(C)[nH]4)cc3o2)cc1OC	-1	1.5	-1.4	12	-6	-0.9	2.3	2
OC(CNC1Cc2ccccc2C1)COc1ccc(F)cc1 (stereo unspecified)	5	0.1	2.4	-2	39	4.0	-0.7	22
O=C(O)c1ccccc1C(=O)Nc1ccc(Oc2cccc(C(F)(F)F)c2)nc1	-8	0.5	-1.5	-1	-19	4.1	?	3
O=C(CN1CCCC1)Nc1ccc(OCc2ccccc2)cc1	-4	0.2	3.2	4	-14	3.1	1.8	7
CCCc1cc(=O)oc2c(C)c(OCC(=O)NCCN3CCOCC3)ccc12	-1	0.9	1.3	-3	0	-22	6.4	-2
Cc1nnc(NC(=O)CCCCCN2C(=O)C3C4C=CC(C4)C3C2=O)s1 (stereo unspecified)	2	-0.1	-2.5	-1	-1	4.7	-0.3	1
O=C(c1ccc(Br)o1)N1CCN(c2ccc3nnc(-c4ccccc4)n3n2)CC1	2	-0.6	-4.9	8	34	2.7	?	13
CN(C)C(CNS(=O)(=O)c1ccc(Cl)cc1)c1cccnc1 (stereo unspecified)	-7	0.1	-3.7	2	-5	5.4	2.0	2
Cc1ccsc1C(=O)NNC(=O)C1CCCCC1C(=O)O (stereo unspecified)	-1	-0.3	-1.0	-20	8	1.6	-0.5	6
CCCn1c(=S)[nH]c2cc(Cl)ccc21	-6	0.2	2.8	13	-5	4.6	-0.9	8
O=[N+]([O-])c1ccccc1/C=C/CN1CCN(Cc2ccc3c(c2)OCO3)CC1	-7	-0.1	-2.0	-20	?	4.1	3.8	-5
CCC1CN(C(=O)N2CCC(C(=O)NCc3cccc(F)c3)CC2)c2ccccc2O1 (stereo unspecified)	0	0.1	-9.8	8	3	1.8	-2.0	3
CC(C(=O)Nc1cccc([N+](=O)[O-])c1)N1CCN(C/C=C/c2ccccc2)CC1 (stereo unspecified)	-5	0.0	-0.1	-25	29	4.1	1.5	-17
Cc1ccc(S(=O)(=O)N2CCCCC2CCNC(=O)C(=O)NC2CCCC2)cc1 (stereo unspecified)	7	0.8	2.8	-17	4	2.9	-2.3	-5
